Assay outcomes deposited in PubChem BioAssay by several laboratories.
FGF22 binding – FGF22 (human) thermal shift binding; recombinant FGF22 thermal shift, SYPRO orange fluorescence; percent of sucrose octasulfate shift, DMSO zero; calls only at 9.99 µM; 340,000 tested, 1.5% active; AID 651658;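 active = melting point raised past a set limit in the mean and every replicate; three in four hits are not shown here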
Target sequence (Q9HCT0 whole entry, looked up): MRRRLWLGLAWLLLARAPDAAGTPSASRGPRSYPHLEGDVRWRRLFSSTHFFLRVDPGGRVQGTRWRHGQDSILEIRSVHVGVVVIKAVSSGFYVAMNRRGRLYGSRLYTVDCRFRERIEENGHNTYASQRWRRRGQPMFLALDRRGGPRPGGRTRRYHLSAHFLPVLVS
UCH37 DUB inh – blocks the human deubiquitinase UCH37 | Q9Y5K5 | inhibition, % (no concentration beside the values) | 330,000 tested, 0.33% active | purified proteasome/UCH37, Ub-AMC cleavage fluorescence;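 active = mean of two replicates above 20%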;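 also: 0% = compound-free wells with enzyme and 100% = wells lacking proteasome; stock transfer was 100 nL into about 20 µL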
Target sequence (Q9Y5K5 whole entry, looked up): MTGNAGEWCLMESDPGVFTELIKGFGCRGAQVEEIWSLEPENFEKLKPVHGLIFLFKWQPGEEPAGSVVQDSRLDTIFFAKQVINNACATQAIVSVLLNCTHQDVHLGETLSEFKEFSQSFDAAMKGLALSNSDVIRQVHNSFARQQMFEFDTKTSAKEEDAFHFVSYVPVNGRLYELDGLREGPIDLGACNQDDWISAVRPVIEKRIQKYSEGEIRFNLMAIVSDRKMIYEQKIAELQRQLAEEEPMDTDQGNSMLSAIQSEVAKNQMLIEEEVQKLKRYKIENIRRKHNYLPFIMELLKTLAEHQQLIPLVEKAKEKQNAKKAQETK
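Assay system: Proteasome-bound UCH37. Buffer or medium: pH 7.4 Tris-HCl (50 mM) with ovalbumin, ATP-MgCl2, DTT. Incubation: 30 min preincubation with enzyme, 25 min cleavage at room temperature. Measured by: fluorescence, ex 355 nm, em 460 nm. Read-out basis: percent inhibition. Control set: wells without proteasome as full block, compound-free enzyme plus substrate as uninhibited.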
MLL AF4-AF9 inh – blocks AF4 peptide binding to human AF9; P42568; AlphaScreen, biotin-AF4 peptide binding to FLAG-AF9; inhibition, % at 10 µM; 350,000 tested, 0.47% active; AID 651704;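 active = every replicate reaching a set inhibition limit, whatever the replicate mean, cut at about 25% in these data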;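 also: 0% = plate neutral control median and 100% = total signal loss; the record names both 10 and 1 µM as test concentration; the first replicate is given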
Target sequence (P42568 whole entry, looked up): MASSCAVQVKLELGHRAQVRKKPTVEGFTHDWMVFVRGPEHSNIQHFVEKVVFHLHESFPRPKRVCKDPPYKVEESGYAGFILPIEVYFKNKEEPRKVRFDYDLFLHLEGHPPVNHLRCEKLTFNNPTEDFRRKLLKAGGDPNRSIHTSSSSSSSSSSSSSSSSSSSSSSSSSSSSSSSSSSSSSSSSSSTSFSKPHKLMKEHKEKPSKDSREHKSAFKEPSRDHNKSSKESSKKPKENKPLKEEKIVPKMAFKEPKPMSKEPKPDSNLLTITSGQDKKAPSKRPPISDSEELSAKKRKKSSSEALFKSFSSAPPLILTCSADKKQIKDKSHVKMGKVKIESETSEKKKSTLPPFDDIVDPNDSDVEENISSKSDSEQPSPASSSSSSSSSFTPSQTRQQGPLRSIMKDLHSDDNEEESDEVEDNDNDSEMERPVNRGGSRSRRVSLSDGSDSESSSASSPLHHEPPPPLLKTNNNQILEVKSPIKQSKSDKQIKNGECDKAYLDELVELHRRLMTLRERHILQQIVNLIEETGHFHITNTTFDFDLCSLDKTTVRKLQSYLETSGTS
A1 inh – inhibitors of the anti-apoptotic protein A1, read as caspase activation; MEF A1-2A-BIM cells, Caspase-Glo 3/7 luminescence, 3 h; percent of clofoctol response, vehicle zero; AID 2462; 330,000 tested, 0.066% active; caspase activation, % (no concentration beside the values);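 active = over half of replicate activation scores above 10%, or exactly half above 10 with the replicate mean above 10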;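 also: wells of about 30 µL received 50 nL stock; many hits fall short of the cut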
Ecoli growth – blocks Escherichia coli growth; OD600, 23 h; active compounds read low; OD600 absorbance (concentration not given with the values); 330,000 tested, 0.21% active;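 active = OD600 absorbance below the run mean of sample wells minus 3.6 SD, in any replicate, cut at about 0.56 in these data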;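 also: stock transfer was 300 nL into about 60 µL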
rRNA inh HTS – selective bacterial rRNA inhibition in E. coli. E. coli WT GFP vs humanized-ribosome RFP mutants, fluorescence, 24 h; active compounds read low; DMSO median 0, no signal -100. GFP signal change (wild-type ribosome), % (concentration not given with the values). 350,000 tested, 1.6% active. AID 720706;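 active = significant combined selectivity score with lowered wild-type GFP, culture density cut under 30%, mutant RFP and density less affected; inactive = any of these conditions unmet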; also: one replicate is shown; some compounds called inactive have numbers as strong as hits
Beta cell apopt – blocks beta cell apoptosis; INS-1E cytokine-induced death, ATP luminescence, 48 h; percent of positive-control rescue, neutral wells zero; 300,000 tested, 0.8% active; AID 435005; protection from apoptosis, % (no concentration beside the values);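 active = all replicates at 75% or more, or half of them and the mean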;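 also: 0% = cytokine-treated negative control wells and 100% = positive control rescue; higher means more ATP so stronger rescue from cytokine killing; wells of about 40 µL received 100 nL stock; the first replicate is given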
T cruzi inh – T. cruzi replication inhibition | T. cruzi beta-gal in NIH3T3, luminescence, 90 h | inhibition, % (no concentration beside the values) | 300,000 tested, 1.4% active | AID 1885;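 active = mean inhibition across valid replicates above about 55%, limit read from the data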;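 also: signal also drops with host cell toxicity which is not excluded here; 0% = plate median of DMSO wells and 100% = zero luminescence signal; higher percent means less beta-gal luminescence so fewer parasites; stock transfer was 50 nL into about 50 µL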
rRNA inh HTS OD600 – recorded beside rRNA inh HTS, whose call it bears; OD600 change, %; measured here: OD600 growth;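 optical density of the mix in the first replicate; 0 = DMSO median and -100 = no signal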
rRNA inh HTS RFP – also measured in rRNA inh HTS; calls as there; RFP signal change, %; measured here: RFP humanized mutant strains;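 first replicate; 0 = DMSO median and -100 = no signal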
An asterisk follows results filed as active; i = inactive; · = not tested or not shown; & = joins results of further samples; ! = not active in a repeat. A portion of the library; count on the stated rates, not on these rows.

SMILES | FGF22 binding | UCH37 DUB inh | MLL AF4-AF9 inh | A1 inh | Ecoli growth | rRNA inh HTS | rRNA inh HTS OD600 | rRNA inh HTS RFP | Beta cell apopt | T cruzi inh
COc1ccc(C(C)=O)c(OC(=O)c2ccc(OC)c(OC)c2)c1 | · | 1.4 | · | -0.1 | 0.694 | · | · | · | -1.8 | -3.1
C#CCOCCOCCOCCNc1nc(N2CCN(C(=O)CCCCCCCCCCNC(=O)[C@H](CCCCN)n3cc(CCCC(=O)O)nn3)CC2)nc(N2CCN(C(=O)CCCCCCCCCCNC(=O)[C@@H]([C@H](C)O)n3cc(C)nn3)CC2)n1 | · | -0.1 | · | 0.2 | · | -14.7 | -6.5 | -2.1 | -3.5 | ·
O=Cc1c(NCCCN2CCCC2=O)c2ccccc2[nH]c1=O | i | 5.7 | -11.2 | 0.2 | 0.62 | 6.0 | 3.3 | 1.8 | -5.7 | -9.2
O=C(CSc1ncccn1)Nc1ccc2[nH]c(=O)[nH]c2c1 | i | 1.3 | -2.6 | 1.4 | 0.642 | -1.0 | 3.1 | -2.1 | · | -8.0
CCOc1ccc(C=NCC(O)c2ccccc2)cc1 (stereo not given) | i | 2.4 | -5.5 | -2.0 | 0.673 | 18.5 | 14.9 | -2.2 | -5.0 | -2.7
CCn1c(CC(=O)Nc2ccccc2F)nnc1SCC(=O)N1CCN(c2ccccc2)CC1 | · | 2.6 | · | -0.4 | 0.701 | · | · | · | -4.8 | ·
CO/N=C/C1CCN(c2ncc(C(F)(F)F)cc2Cl)C1=O (stereo not given) | i | · | -1.3 | 2.1 | · | 6.4 | 10.5 | -1.6 | -0.8 | -7.6
CS(=O)(=O)NN1C(=O)c2ccccc2NC1c1c[nH]c2ccccc12 (stereo not given) | i | -46.2 | 20.2 | 0.9 | 0.678 | 16.8 | 2.6 | 2.0 | 8.3 | 14.2
O=C(NC(=S)Nc1ccccc1F)C1CCCCC1 | i | · | -1.9 | 0.1 | · | 4.1 | -10.5 | -4.4 | · | 8.2
COc1ccc(Nc2ncnc3sccc23)cc1 | i | 2.4 | -0.3 | -1.8 | 0.661 | 3.5 | 6.0 | -1.7 | 1.0 | -7.1
O=S1(=O)[C@H]2C[C@@H]3C=C[C@]2(CN1Cc1ccc(C(F)(F)F)cc1)O3 | i | -1.1 | 0.4 | 0.0 | · | 11.0 | 6.3 | 3.5 | -1.5 | -12.3
CC(C)(C)n1nnnc1C(c1cccs1)N1CCCC2(CCCCC2)C1 (stereo not given) | i | 4.6 | 3.4 | 0.0 | 0.69 | 8.8 | 12.2 | -1.9 | -3.5 | 62.7*
CCc1nnc(-n2nc(C)cc2-c2ccccc2)n1N | · | -0.6 | · | -0.1 | 0.753 | · | · | · | -6.8 | ·
CS(=O)(=O)N(CC(=O)Nc1ccc(Br)cc1F)C1CCCCC1 | i | 1.5 | -4.2 | 0.6 | 0.667 | 7.4 | 7.8 | -1.2 | 4.7 | -9.2
COc1nnc(-c2ccc(N3CCCCC3)c(N)c2)c2ccccc12 | · | 1.5 | · | -0.7 | 0.679 | · | · | · | -1.5 | 32.3
Fc1ccccc1CSc1nnc2ccc(-c3ccncc3)nn12 | i | 2.6 | 14.9 | 0.0 | 0.689 | -0.9 | -6.3 | 0.9 | 3.8 | 2.2
Cc1ccc(NC(=O)CN(C)CC(=O)Nc2ccccc2C#N)cc1 | i | 0.0 | -2.8 | 0.1 | 0.696 | 0.9 | 0.9 | 2.4 | 7.9 | -4.9
COc1cccc(-c2nc3n(n2)C(c2ccccc2Cl)C(C(N)=O)=C(C)N3)c1 (stereo not given) | i | 2.0 | -1.0 | -0.4 | 0.754 | 5.2 | -4.5 | -1.2 | 1.7 | 14.8
CCc1nn(CC(=O)NCCCN2CCN(C)CC2)c(=O)c2cc3occc3n12 | i | -1.4 | -6.1 | 1.0 | 0.624 | 9.2 | 19.5 | -0.2 | -3.5 | -4.1
COc1cc(C)ccc1OCCOc1c(C)cc(Cl)cc1Cl | i | 2.3 | -1.1 | 0.9 | 0.653 | · | · | · | -4.1 | 6.9
O=c1c2ccccc2ncn1-c1cccc(Br)c1 | i | 1.7 | -1.4 | 0.5 | 0.718 | -2.4 | 8.7 | 0.7 | 2.0 | -10.9
COCCNC(=O)[C@@H]1CSC2c3ccc(OC)c(OC)c3C(=O)N21 (stereo not given in full) | i | -185.6 | 0.2 | 0.3 | 0.686 | 16.6 | 22.1 | 2.2 | -5.7 | 2.4
CC1Cc2ccccc2N1C(=O)CSC1=NCCS1 (stereo not given) | · | 7.4 | · | -0.5 | 0.665 | · | · | · | 2.5 | 7.4
O=C(N/C(=C/c1ccc(Br)cc1)C(=O)N1CCCC1)c1cccs1 | i | 3.9 | -0.5 | 0.2 | 0.695 | 3.0 | -9.4 | -1.1 | 6.3 | -0.3
CC(C)Oc1ccc(NC(=O)C2CCCNC2=O)cc1 (stereo not given) | i | 5.3 | -14.6 | -0.7 | 0.682 | -1.5 | -3.7 | -4.6 | -6.4 | -8.8
CCN(CC)CCNC(=O)CNC(=S)N(CCCN1CCOCC1)Cc1cccs1 | · | -1.4 | -1.4 | 1.0 | 0.677 | 4.0 | 8.1 | -2.0 | -4.7 | -16.4
CCN(CC(=O)Nc1c(F)cccc1F)C(=O)CCCc1nc2ccccc2c(=O)[nH]1 | i | 4.6 | 0.7 | 0.6 | 0.678 | 6.1 | 3.0 | 0.7 | 1.1 | 4.1
CCCC(NC(=O)COc1cc2c(c3oc(=O)c(C)c(C)c13)CCC(C)(C)O2)C(=O)O (stereo not given) | i | i | -26.1 | -0.4 | 0.675 | -0.4 | -2.2 | -1.1 | -2.1 | 7.6
CCCOC(=O)C1=C(C)NC2=C(C(=O)C(C(=O)OC)C(C)C2)C1c1ccc(N(C)C)cc1 (stereo not given) | · | -16.9 | · | 0.0 | 0.657 | · | · | · | -16.5 | 34.5
Cc1c(C(=O)N(C)Cc2ccccc2)oc2c(Cl)cccc12 | i | 2.0 | 4.6 | 0.5 | 0.664 | -49.0 | -70.5 | -13.1 | -4.7 | 10.1
CCCCN1C(=N)N([C@@H](CCC)CN2CCC[C@H]2CN2C(N)=NC[C@H]2CC(C)C)C[C@H]1Cc1ccccc1 | i | 0.8 | 7.0 | · | 0.644 | -26.7 | -58.2 | -9.3 | · | ·
Cc1cccc(C(=O)N2CCc3c([nH]c4ccccc34)C2CC(C)C)n1 (stereo not given) | i | -6.9 | 7.5 | 0.3 | 0.73 | -20.4 | -22.4 | -0.7 | -5.0 | -0.3
O=C(NCCCN1CCCC1)c1cc(Sc2ccc(F)cc2)nc2ccccc12 | · | 2.0 | 3.6 | -0.7 | 0.679 | 4.8 | 2.5 | -0.6 | -6.6 | 23.0
CCCCn1c(-c2ccsc2)nc2c1c(=O)[nH]c(=O)n2CCC | · | -2.9 | · | 0.7 | 0.745 | · | · | · | 11.5 | 30.9
COc1cccc(C2C(C#N)=C(N)Oc3cc(N)ccc32)c1OC (stereo not given) | · | -11.7 | · | 0.5 | 0.73 | · | · | · | · | 5.5
CCCCn1c(N)c(N(CCC(C)C)C(=O)Cc2ccc(S(=O)(=O)N3CCOCC3)s2)c(=O)[nH]c1=O | i | 0.0 | -16.2 | -0.1 | 0.706 | -1.0 | 1.0 | 1.5 | 0.0 | -8.9

9 neighbouring entries from above, quoted:
SMILES | FGF22 binding | UCH37 DUB inh | MLL AF4-AF9 inh | A1 inh | Ecoli growth | rRNA inh HTS | rRNA inh HTS OD600 | rRNA inh HTS RFP | Beta cell apopt | T cruzi inh
CC(C)Oc1ccc(NC(=O)C2CCCNC2=O)cc1 (stereo not given) | i | 5.3 | -14.6 | -0.7 | 0.682 | -1.5 | -3.7 | -4.6 | -6.4 | -8.8
CCN(CC)CCNC(=O)CNC(=S)N(CCCN1CCOCC1)Cc1cccs1 | · | -1.4 | -1.4 | 1.0 | 0.677 | 4.0 | 8.1 | -2.0 | -4.7 | -16.4
CCN(CC(=O)Nc1c(F)cccc1F)C(=O)CCCc1nc2ccccc2c(=O)[nH]1 | i | 4.6 | 0.7 | 0.6 | 0.678 | 6.1 | 3.0 | 0.7 | 1.1 | 4.1
CCCC(NC(=O)COc1cc2c(c3oc(=O)c(C)c(C)c13)CCC(C)(C)O2)C(=O)O (stereo not given) | i | i | -26.1 | -0.4 | 0.675 | -0.4 | -2.2 | -1.1 | -2.1 | 7.6
CCCOC(=O)C1=C(C)NC2=C(C(=O)C(C(=O)OC)C(C)C2)C1c1ccc(N(C)C)cc1 (stereo not given) | · | -16.9 | · | 0.0 | 0.657 | · | · | · | -16.5 | 34.5
Cc1c(C(=O)N(C)Cc2ccccc2)oc2c(Cl)cccc12 | i | 2.0 | 4.6 | 0.5 | 0.664 | -49.0 | -70.5 | -13.1 | -4.7 | 10.1
CCCCN1C(=N)N([C@@H](CCC)CN2CCC[C@H]2CN2C(N)=NC[C@H]2CC(C)C)C[C@H]1Cc1ccccc1 | i | 0.8 | 7.0 | · | 0.644 | -26.7 | -58.2 | -9.3 | · | ·
Cc1cccc(C(=O)N2CCc3c([nH]c4ccccc34)C2CC(C)C)n1 (stereo not given) | i | -6.9 | 7.5 | 0.3 | 0.73 | -20.4 | -22.4 | -0.7 | -5.0 | -0.3
O=C(NCCCN1CCCC1)c1cc(Sc2ccc(F)cc2)nc2ccccc12 | · | 2.0 | 3.6 | -0.7 | 0.679 | 4.8 | 2.5 | -0.6 | -6.6 | 23.0

(further entries)
SMILES | FGF22 binding | UCH37 DUB inh | MLL AF4-AF9 inh | A1 inh | Ecoli growth | rRNA inh HTS | rRNA inh HTS OD600 | rRNA inh HTS RFP | Beta cell apopt | T cruzi inh
Cc1cccc(C)c1NC(=O)CSc1nc2ccccc2c(=O)[nH]1 | · | -0.9 | · | 0.3 | 0.748 | · | · | · | 5.6 | 2.9
COc1ccc(NC(=O)/C(=C/c2ccc3c(c2)OCO3)NC(C)=O)cc1 | i | 6.9 | -2.4 | -0.5 | 0.642 | 10.9 | 6.7 | 0.0 | -7.5 | -1.7
CCOC(=O)c1c(/N=C/C2C(=O)CCCC2=O)sc(C)c1C | i | · | -7.1 | 0.0 | · | 7.5 | -1.2 | -4.7 | -6.3 | -16.7
Fc1ccc(-c2cnc3n2CCCCC3)cc1 | i | -2.2 | -3.0 | -0.3 | 0.694 | -5.0 | 0.0 | -2.9 | 0.5 | -15.7
C[C@@H]1CN([C@@H](C)CO)C(=O)c2cccc(NC(=O)c3ccncc3)c2O[C@@H]1CN(C)Cc1ccc(-c2ccccc2)cc1 | i | 2.5 | 3.3 | 0.1 | 0.739 | -19.1*! | -10.5*! | 4.4*! | -7.5 | ·
O=C(Nc1ccc2c(c1)OCO2)NC1(C(F)(F)F)Oc2ccccc2O1 | · | 5.9 | · | -0.3 | 0.737 | · | · | · | 0.2 | -12.1
C[C@H]1CN([C@@H](C)CO)C(=O)c2cc(NC(=O)C3CCCCC3)ccc2O[C@H]1CN(C)S(=O)(=O)c1ccccc1 | i | -3.1 | -2.6&0.7 | 0.2 | 0.756 | -5.4&-1.9 | 2.7&-3.3 | -1.0&1.9 | -3.2 | ·
